# RE007 growth inh – less growth of the S. pombe RE007 Vpr strain. Potency, µM (highest dose often 92.2 µM), inactives show top-dose activity change, negative = less growth. actives 0.21% (n = 360,000). S. pombe RE007 Vpr strain, BacTiter-Glo ATP luminescence, 24 h; control for the full effect not named in the record. AID 651644; active = well fitted falling curve with a large enough effect; inconclusive = small, poorly fitted or top-dose-only effect; inactive = no such curve, though single readings can be large or run the other way;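 note: % is set by controls: 0 for no effect and ±100 for the full control effect; nearly all actives have a fitted effect of over 50% in size; the assay follows cell death caused by Vpr and the record does not say whether a fall means rescue or toxicity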
#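 Fission yeast strain RE007, carrying one chromosomally integrated HIV-1 vpr copy, was seeded at OD 0.01 in PMG+AL medium with 23 nL pinned compound. After 24 h at 30 °C and 99% humidity, viability was read by BacTiter-Glo luminescence.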
# SARS PLP yeast – SARS-CoV PLP inhibition in yeast. S. cerevisiae expressing SARS-CoV PLpro, growth rescue; control for the full effect not named in the record. Potency, µM (top dose mostly 32.9 µM), without a hit: at the highest dose activity, positive = growth rescue. actives 0.19% (n = 330,000). AID 485353; note: 0% is about no effect; nearly all actives have a fitted effect of over 55% in size; growth read by luminescence after 48 h
# Lassa entry inh – Lassa virus entry inhibition; Lassa virus pseudotype entry inhibition, cell reporter; control for the full effect not named in the record; Potency, µM (highest dose often 37.9 µM), for inactives: top-dose activity change, negative = inhibition, most hits filed as inhibitors; actives 1.2% (n = 300,000); active means well fitted inhibition curve with a large enough effect; inconclusive means small, poorly fitted or top-dose-only effect, or effect the other way; inactive means flat fitted curve, though single readings scatter; tested in HEK293 cells; note: % is set by controls: 0 for no effect and ±100 for the full control effect; nearly all actives have a fitted effect of over 50% in size; luciferase read-out
# Marburg entry inh – blocks Marburg virus binding to or entry into cells | Marburg virus pseudotyped entry inhibition, cell reporter; control for the full effect not named in the record; about a third of the inactives were read at about 46 µM | Potency, µM (doses to about 37.8 µM), inactives show at the top dose activity change, negative = inhibition, actives largely listed as inhibitors | actives 1.8% (n = 300,000) | AID 540276; active = well fitted inhibition curve with a large enough effect; inconclusive = small, poorly fitted or top-dose-only effect, or effect the other way; inactive = flat fitted curve, though single readings scatter; tested in HEK293 cells; about a fifth of its hits are not listed in these tables; note: % is set by controls: 0 for no effect and ±100 for the full control effect; luciferase read-out
# StopGo reporter – lowers the luciferase signal of an FMDV 2A StopGo reporter; human cells with a luciferase reporter of 2A StopGo recoding; control for the full effect not named in the record; Potency, µM (highest dose often 57.9 µM), without a hit: top-dose signal change, negative = less light; actives 1.2% (n = 410,000); AID 1159524; active = well fitted falling curve with a large enough effect; inconclusive = small, poorly fitted or top-dose-only effect; inactive = no such curve, though single readings can be large or run the other way; tested in HEK293T cells; note: % is set by controls: 0 for no effect and ±100 for the full control effect; nearly all actives have a fitted effect of over 45% in size; luciferase light after 4 h
# Cruzain inh Det – blocks cruzain activity in presence of Triton detergent; P25779; Potency, µM, for the others: max response, negative = inhibition, hits mostly inhibitors; actives 0.43% (n = 200,000); purified cruzain, Z-FR-AMC fluorescence, 0.01% Triton; active = well fitted curve in the direction sought with a large enough effect; inconclusive = small, poorly fitted or top-dose-only effect, or another doubt; inactive = no such curve, though single readings can be large; an effect the other way counts as inactive or inconclusive;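 note: plate controls were neutral wells for no effect and buffer without enzyme for full effect; nearly all actives have a fitted effect of over 40% in size; top concentration of the series not given in the record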
# Target sequence (P25779 123-467 limits assumed): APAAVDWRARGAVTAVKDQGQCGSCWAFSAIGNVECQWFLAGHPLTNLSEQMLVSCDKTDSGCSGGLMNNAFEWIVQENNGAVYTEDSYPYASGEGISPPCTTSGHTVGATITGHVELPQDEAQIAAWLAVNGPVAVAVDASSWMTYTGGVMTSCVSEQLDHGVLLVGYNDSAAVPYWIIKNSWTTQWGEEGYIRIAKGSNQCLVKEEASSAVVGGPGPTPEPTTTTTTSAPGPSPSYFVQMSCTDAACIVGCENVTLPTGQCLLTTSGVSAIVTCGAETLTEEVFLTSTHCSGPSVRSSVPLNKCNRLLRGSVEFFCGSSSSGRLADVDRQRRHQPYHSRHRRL
#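 Sodium acetate buffer (100 mM, pH 5.5) containing 5 mM DTT and 0.01% Triton X-100 hosted 1.5 nM cruzain and test compound for 15 min at room temperature. Cleavage of 2 uM Z-FR-AMC was then tracked by fluorescence.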
# NS1 inh – blocks influenza NS1 protein function; S. cerevisiae slowed by influenza A NS1, growth recovery by OD600; Potency, µM (series often up to 46.1 µM), without a hit: at the top dose activity, positive = more growth; actives 0.4% (n = 270,000); AID 2326; note: actives are rising curves; nearly all actives have a fitted effect of over 50% in size
#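 In this qHTS, NS1 from influenza A is expressed in budding yeast, where it slows growth. Cells are switched from glucose to 2% galactose medium (pH 6.0, -URA), treated with compound, and growth recovery is read at OD600.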
# Cruzain noTriton – inhibitors of Trypanosoma cruzi cruzain without detergent; Potency, µM, for the others: max response, negative = inhibition, most hits filed as inhibitors; actives 2.3% (n = 200,000); purified cruzain, Z-FR-AMC fluorescence, no detergent; P25779; active = well fitted curve in the direction sought with a large enough effect; inconclusive = small, poorly fitted or top-dose-only effect, or another doubt; inactive = no such curve, though single readings can be large; an effect the other way counts as inactive or inconclusive;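 note: plate controls were enzyme without inhibitor for no effect and buffer without enzyme for full effect; nearly all actives have a fitted effect of over 40% in size; top concentration of the series not given in the record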
#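 Detergent-free condition (0.00005% Triton X-100) in acetate buffer pH 5.5 with DTT. 1.5 nM enzyme and compound were pre-mixed 15 min, then 2 uM Z-FR-AMC substrate added; reaction progress from fluorescence change between first and third reads (60 s).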
# * = called active by the depositor; ? = inconclusive; . = no result given; & = joins results of further samples; [ ] = remark or other dose. Unless noted, calls come from the whole dose curve; as a rule, active means well fitted rising curve with a large enough effect; inconclusive means small, poorly fitted or top-dose-only effect; inactive means no such curve, though single readings can be large or run the other way. Potency is the fitted concentration of half-maximal effect. The order is random. Share with any hit: about 4.8%.
SMILES,RE007 growth inh,SARS PLP yeast,Lassa entry inh,Marburg entry inh,StopGo reporter,Cruzain inh Det,NS1 inh,Cruzain noTriton
COc1ccc(S(=O)(=O)Nc2cc3c4c(c2)CCC(=O)N4CCC3)cc1C,8%,7%,-18%[46.1 µM],-11%,32%[activator],.,.,.
COc1ccccc1OCC(=O)N1CCCC(Nc2ccc(C)c(C)c2)C1 (stereo not given),-19%,0%,-13%,0%,-8%,.,-8%,.
COc1ccc(CCNS(=O)(=O)c2ccc3c(c2)NC(=O)CCS3)cc1OC,10%,1%,?,?,-14%,.,10%,.
O=C(Nc1cccc2cccnc12)c1ccc(Br)o1,-20%,-26%,1%,-4%,42%[activator],-5.0%,-94%,-9%
CCOc1ccc(CCNC(=O)Cn2c(-c3cccs3)cc3cc(F)ccc32)cc1OCC,.,.,11µM*,.,-42%,-3.5%,.,15%
O=C1C(c2cccc(Br)c2)N(CCc2ccccc2)C(=O)CN1C1CCCCC1 (stereo not given),.,.,4%[46.1 µM],.,4%,0.3%,.,-19%
CCc1c(C)nc2ncnn2c1N1CCCC(C(=O)Nc2cc(F)ccc2C)C1 (stereo not given),-8%,-2%,-8%,?,35µM*,0.7%,-1%,0%
CC(=O)c1ccc(S(=O)(=O)N2CCN(C)CC2)cc1,-21%,0%,0%[46.1 µM],6%[46.1 µM],-18%,.,6%,.
CN(CC1CCN(CCc2cccc(C(F)(F)F)c2)CC1)C(=O)c1ccccc1,-16%,13%,.,.,-27%,.,10%,.
CCOC(=O)N1CCN(C(=O)C2CCCN(S(=O)(=O)c3c(C)cc(C)cc3C)C2)CC1 (stereo not given),-16%,2%,?,-11%,?,.,-9%,.
Cn1c(=O)c2c(ncn2CC(=O)OCC(=O)NC(c2ccccc2)c2ccccc2)n(C)c1=O,-8%,-5%,1%,?,-20%,0.3%,-17%,18%
CC(=O)Nc1nc(CCC(C)C)cc2c1c(=O)oc1ccccc12,?,-2%,0%,-5%,5%,-2.4%,-5%,?
O=C(CC1C(=O)NCCN1Cc1ccccc1C(F)(F)F)NC1CCC1 (stereo not given),-14%,8%,12%,6%,-20%,.,2%,.
CCN=c1sc(C(=O)Nc2ccccc2)c(C)n1CC,-6%,1%,18%,?,-16%,.,.,.
Cc1cccc(NC(=O)CCN2CCOCC2)c1,11%,-5%,-5%,12%,23%,2.7%,-5%,-4%
Clc1cccc(Cl)c1C[n+]1cccc2ccccc21,-11%,.,?,?,?,.,.,.
CCN1C=CC2=C(C#N)C(N)C(C#N)(C#N)C(c3ccccc3C(F)(F)F)C2C1 (stereo not given),-2%,-9%,?,-15%,-15%,-7.7%,8%,-2%
Cc1cc(C)c2c(n1)sc1c(=O)n(-c3ccccc3)c(=O)[nH]c12,-1%,-2%,?,?,-9%,3.5%,-23%,19%
Cc1ccccc1-n1ncc2c1CC(C)(C)CC2NC(=O)c1cn[nH]c1C (stereo not given),1%,-7%,.,.,-2%,.,-6%,.
CC1=C(C(N)=O)C(c2ccco2)C(C(N)=O)=C(C)N1,19%,4%,?,11%[46.1 µM],6%,2.1%,7%,5%
O=C(NC1CCN(C(=O)C2CCCCC2)CC1)c1ccccc1,1%,0%,13%[46.1 µM],-11%[46.1 µM],-20%,.,3%,.
Oc1ccccc1N=Cc1c(O)ccc2oc3c(c12)CCCC3,-29%,-6%,.,.,-14%,.,-67%,.
COc1ccc(OC)c(CCNC(=O)Cn2cccc2C(=O)c2ccccc2)c1,3%,-2%,.,.,-9%,.,-3%,.
Cc1ccc(NC(=O)C2CCN(c3nc(C)cc(C)n3)CC2)cc1,-17%,-1%,.,.,-24%,.,4%,.
COc1ccccc1CNC(=O)[C@H](C)NC(=O)C1CCN(C(=O)[C@H](CCSC)NC(=O)OC(C)(C)C)CC1,5%,-4%,.,.,-18%,.,-24%,.
CCC(=O)N1CCN(c2ccccc2NC(=O)COc2ccc(C(C)C)cc2)CC1,-4%,-11%,.,.,-21%,.,-31%,.
COC(=O)C1=C(C(=O)OC)[C@@H]2N(C)c3ccccc3[C@@]23C[C@@H](C(=O)OC)N(C(=O)CC(C)C)C3=N1,11%,-1%,.,.,-23%,.,8%,.
O=C(OCc1ccccc1Cl)c1ccc(-c2nnn(Cc3ccccc3)n2)cc1,.,.,1%[46.1 µM],-1%[46.1 µM],4%,-1.0%,.,-10%
O=c1oc2ccccc2c(O)c1[C@H]1c2ccc(O)cc2Oc2c1c(=O)oc1ccccc21,-24%,-10%,.,.,?,.,-61%,.
N#Cc1nc(COc2ccc(Cl)cc2)oc1NCc1ccc2c(c1)OCO2,-16%,-1%,-4%,6%[46.1 µM],0%,-3.5%,-5%,6%
CCOC(=O)c1[nH]c2ccccc2c1NC(=O)c1ccc(OCC)cc1,.,.,0%[46.1 µM],?,-1%,-2.7%,.,-5%
O=C(N/N=C\C=C\c1ccc([N+](=O)[O-])o1)c1cccs1,-10%,-6%,?,?,2%,.,-45%,.
CC(=O)N1CCCc2cc(S(=O)(=O)N3CCCC(C(=O)NCc4ccccc4)C3)ccc21 (stereo not given),7%,?,?,.,?,-1.5%,8%,5%
CCCCN(CC)C(=O)CSc1nc2n[nH]c(C)c2c(=N)n1-c1cccc(Cl)c1,.,.,?,.,?,-8.9%,.,?
CC(=O)NC(Cc1c[nH]c2ccccc12)C(=O)OCC(=O)Nc1cc(C)on1 (stereo not given),-1%,1%,-7%,-3%,-22%,-1.5%,-12%,-1%
O=c1c(C=NCCCO)c(-c2ccccc2)[nH]n1-c1nc2ccccc2s1,-17%,-1%,-7%,-5%,?,.,-9%,.
COC(=O)c1c(C)nc(C)c(C(=O)OC)c1-c1cccs1,-20%,-1%,.,-1%[46.1 µM],-2%,.,-5%,.
CC(=O)Nc1cc2nn(-c3ccccc3)nc2cc1C,-23%,-4%,.,.,0%,.,1%,.
CCn1c(COc2cccc3ccccc23)nnc1SCC(N)=O,-11%,-1%,11%,14%,3%,4.2%,-12%,11%
O=C(Nc1ccccc1Oc1ccsc1C(=O)O)c1ccccc1,4%,1%,.,.,5%,.,4%,.
Cc1ccc(CCC2C3=C(CCCC3=O)OC3=C2C(=O)CCC3)cc1,16%,5%,-13%,9%,-4%,-6.7%,2%,-4%
Cc1ccc(C(=O)C(C)OC(=O)Cn2[nH]c(=O)c3ccccc3c2=O)cc1 (stereo not given),12%,1%,.,.,-27%,.,-6%,.
CC(C)CN(C(=O)COC(=O)Cn1cnc2ccccc2c1=O)C1CCS(=O)(=O)C1 (stereo not given),10%,9%,4%,7%,9%,0.1%,-2%,1%
Clc1ccc(Cl)c(-c2ccc(/C=N/c3ncn[nH]3)o2)c1,?,4%,1%,0%,-17%,-0.9%,-70%,-5%
CCn1c2ccccc2c2cc(NC(=O)CNC)ccc21,-4%,1%,0%[46.1 µM],?,-14%,.,-5%,.
CCc1ccc(OCCCC(=O)Nc2ccc(N3CCOCC3)cc2)cc1,-22%,0%,.,.,-9%,.,2%,.
CC(=O)N1CCN(c2ccc(NCc3cccs3)cc2)CC1,-6%,-7%,-2%,18%,22%,-6.7%,2%,-4%
CCN(CC)S(=O)(=O)c1cccc(N2CC(O)=C(c3ccccc3)C2=N)c1,-23%,1%,16%,-3%[46.1 µM],0%,.,2%,.
CC1CCC(NCc2ccco2)CC1 (stereo not given),1%,2%,22%,19%,15%,1.7%,-3%,-5%
COc1cccc(C2N(c3cccc(Cl)c3)C(=O)C3CCCN32)c1 (stereo not given),-25%,11%,.,.,-6%,-3.4%,-14%,5%
COc1ccc(CNC(=O)c2ccccc2SCC(=O)N2CCCC2)cc1OC,9%,2%,-21%,-2%[46.1 µM],-6%,.,.,.
Cn1c(=O)c2c(nc(CN3CCC(Cc4ccccc4)CC3)n2CCN2CCOCC2)n(C)c1=O,-1%,-2%,10µM*,11%,0%,1.1%,-4%[9.22 µM],8%
Cc1c(C(=O)NCc2cccnc2)oc2ccccc12,20%,2%,0%,-10%,13%,1.4%,?,5%
COc1ccc(S(=O)(=O)NCc2cccnc2)cc1NC(=O)c1ccccc1C,-4%,.,5%,-13%[46.1 µM],-11%,.,.,.
COc1ccc(NC(=O)c2nc(C)c(C3(C)CC(c4cccnc4)=NO3)s2)cc1 (stereo not given),2%,-1%,.,.,-24%,.,-3%,.
O=C(O)CCCCCNS(=O)(=O)c1ccc(Cl)cc1,-10%,2%,-18%,-9%,-14%,4.3%,13%,-3%
COc1ccc(OC)c(NC(=O)Nc2nnc(N3CCCCC3C)s2)c1 (stereo not given),-10%,1%,.,.,24%,.,-1%,.
CCOC(=O)c1ccc(NC(=O)CCS(=O)(=O)c2cccc3nonc23)cc1,12%,-6%,-8%,23%[46.1 µM],-7%,.,14%,.
Cc1ccc2oc(=O)c3cnn(CC(=O)N4CCN(c5ccccc5)CC4)c3c2c1,0%,1%,4%[46.1 µM],-1%[46.1 µM],?,2.0%&0.2%,10%,-9%&9%
CC(=O)c1sc(NC(=O)c2cccnc2Cl)nc1C,-17%,0%,.,.,34%[activator],.,-3%,.
Cc1cc(=O)oc(C)c1C(=O)NC1CCCCCCC1,-2%,0%,16%,15%[46.1 µM],9%,.,.,.
O=C(CNC(=O)N1CC(=O)Nc2ccccc21)NCc1ccc(Cl)cc1,11%,-1%,.,.,-1%,.,10%,.

# 3 structures out of the list, arranged by formula weight, largest number first.
SMILES,RE007 growth inh,SARS PLP yeast,Lassa entry inh,Marburg entry inh,StopGo reporter,Cruzain inh Det,NS1 inh,Cruzain noTriton
COc1ccc(S(=O)(=O)NCc2cccnc2)cc1NC(=O)c1ccccc1C,-4%,.,5%,-13%[46.1 µM],-11%,.,.,.
O=C(OCc1ccccc1Cl)c1ccc(-c2nnn(Cc3ccccc3)n2)cc1,.,.,1%[46.1 µM],-1%[46.1 µM],4%,-1.0%,.,-10%
CCc1c(C)nc2ncnn2c1N1CCCC(C(=O)Nc2cc(F)ccc2C)C1 (stereo not given),-8%,-2%,-8%,?,35µM*,0.7%,-1%,0%
